KCNQ2 enhance = enhances the rat KCNQ2 potassium channel | O88943 | CHO-K1 KCNQ2, FluxOR thallium flux fluorescence; active compounds read high | B-score at 10 µM | 310,000 compounds, 0.54% hits | AID 2239;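 active means fluorescence ratio B-score at least 3 SD of library B-scores, with initial fluorescence B-score within 3 SD, cut at about 5.3 in these data; same plate scores as AID 2156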;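 further: B-score of peak minus minimum over baseline fluorescence ratio after K+ and Tl+ stimulus; positive B-score means potentiation of KCNQ2 with more thallium influx and brighter signal; only the inactives scoring about 0 or higher are listed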
Target sequence (O88943 whole entry, looked up): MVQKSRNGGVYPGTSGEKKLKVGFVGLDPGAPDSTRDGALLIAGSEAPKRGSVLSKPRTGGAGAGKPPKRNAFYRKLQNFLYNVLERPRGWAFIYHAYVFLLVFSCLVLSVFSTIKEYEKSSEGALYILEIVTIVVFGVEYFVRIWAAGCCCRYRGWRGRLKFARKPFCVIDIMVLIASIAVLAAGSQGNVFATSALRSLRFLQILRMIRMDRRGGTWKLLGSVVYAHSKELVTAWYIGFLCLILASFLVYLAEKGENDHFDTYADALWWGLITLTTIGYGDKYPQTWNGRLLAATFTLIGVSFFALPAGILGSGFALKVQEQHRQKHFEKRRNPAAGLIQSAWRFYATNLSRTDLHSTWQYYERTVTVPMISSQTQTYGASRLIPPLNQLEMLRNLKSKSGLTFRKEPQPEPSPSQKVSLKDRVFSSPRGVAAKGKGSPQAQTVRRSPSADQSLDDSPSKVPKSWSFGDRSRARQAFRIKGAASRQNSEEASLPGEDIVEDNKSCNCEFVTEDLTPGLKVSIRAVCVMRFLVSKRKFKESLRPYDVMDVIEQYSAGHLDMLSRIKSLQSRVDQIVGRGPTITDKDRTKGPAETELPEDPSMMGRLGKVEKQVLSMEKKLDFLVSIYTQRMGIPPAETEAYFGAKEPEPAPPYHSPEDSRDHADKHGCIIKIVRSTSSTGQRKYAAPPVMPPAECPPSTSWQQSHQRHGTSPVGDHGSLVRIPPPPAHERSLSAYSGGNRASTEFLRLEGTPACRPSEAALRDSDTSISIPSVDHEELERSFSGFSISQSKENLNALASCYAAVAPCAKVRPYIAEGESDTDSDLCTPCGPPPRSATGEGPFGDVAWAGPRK
KCNQ2 enhance baseline = recorded beside KCNQ2 enhance, whose call it bears; B-score; compound at 10 µM; measured here: initial fluorescence intensity artifact check;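 brightness before thallium and not channel activity; 0 = typical well and far values either way flag optical interference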
The depositor's hits bear a star. The list is partial; the hit share may differ from the screen's.

O=C(Nc1cccc2ncccc12)c1ccc(F)cc1 was read as KCNQ2 enhance 1.3 and KCNQ2 enhance baseline -0.04.
For CCNc1nc(NCC)nc(C(=O)Nc2ccccc2)n1 the results were KCNQ2 enhance 0.81 and KCNQ2 enhance baseline -0.99.
For CN(CC(=O)Nc1ncn[nH]1)S(=O)(=O)c1cc(Cl)ccc1Cl the results were KCNQ2 enhance 0.07 and KCNQ2 enhance baseline 1.6.
`CN1CCc2c(OCC(=O)NC3CCCCC3)cccc2C1=O` gave KCNQ2 enhance 0.69 and KCNQ2 enhance baseline 0.5.
Screening O=C1Nc2cc(Cl)ccc2Nc2cscc21 returned KCNQ2 enhance 0.03 and KCNQ2 enhance baseline 0.17.
Screening CCC(C)N(C(=O)Cn1nnc2ccccc21)C(C(=O)NCc1ccco1)c1cccc(OC)c1 (centres undefined) returned KCNQ2 enhance 0.04 and KCNQ2 enhance baseline 0.37.
Screening CC(=O)Nc1ccc(C(=O)OCC(=O)Nc2ccc([N+](=O)[O-])cc2C(F)(F)F)cc1 returned KCNQ2 enhance 0.92 and KCNQ2 enhance baseline -0.87.
For CCOc1ccc(N2C(=O)Nc3ccc(Br)cc3C2(O)C(=O)NCCN(C)C)cc1 (centres undefined) the results were KCNQ2 enhance 2.2 and KCNQ2 enhance baseline 0.29.
For CCC(C(=O)NNC(=O)c1cnccn1)c1ccccc1 (centres undefined) the results were KCNQ2 enhance 0.65 and KCNQ2 enhance baseline 0.62.
For C=CCc1c(C)nc(C)nc1N/N=C/c1ccc([N+](=O)[O-])cc1 the results were KCNQ2 enhance 0.55 and KCNQ2 enhance baseline -1.3.
`O=c1cc(Nc2ccc3c(c2)OCCO3)[nH]c(=O)n1-c1ccc(Cl)cc1` gave KCNQ2 enhance 1.5 and KCNQ2 enhance baseline -0.03.
Screening CC(=O)c1ccc(N(CC(=O)NC2CCCC2)C(=O)c2csnn2)cc1 returned KCNQ2 enhance 1.1 and KCNQ2 enhance baseline 1.2.
Screening Cc1ccc(CN2C(=O)CCC2C(=O)NCCCN2CCOCC2)cc1 (centres undefined) returned KCNQ2 enhance 0.87 and KCNQ2 enhance baseline 0.05.
`CC(C)(C)[C@H]1C=C(C(=O)NC2CC2)O[C@@H](OCc2ccc(CO)cc2)C1` gave KCNQ2 enhance 0.51 and KCNQ2 enhance baseline -1.6.
For COc1ccc(-n2ncc3c(NCC4CCCO4)ncnc32)cc1 (centres undefined) the results were KCNQ2 enhance 0.01 and KCNQ2 enhance baseline -0.03.

Six successive records out of the list so far, for reference:
Screening CC(=O)Nc1ccc(C(=O)OCC(=O)Nc2ccc([N+](=O)[O-])cc2C(F)(F)F)cc1 returned KCNQ2 enhance 0.92 and KCNQ2 enhance baseline -0.87.
For CCOc1ccc(N2C(=O)Nc3ccc(Br)cc3C2(O)C(=O)NCCN(C)C)cc1 (centres undefined) the results were KCNQ2 enhance 2.2 and KCNQ2 enhance baseline 0.29.
For CCC(C(=O)NNC(=O)c1cnccn1)c1ccccc1 (centres undefined) the results were KCNQ2 enhance 0.65 and KCNQ2 enhance baseline 0.62.
For C=CCc1c(C)nc(C)nc1N/N=C/c1ccc([N+](=O)[O-])cc1 the results were KCNQ2 enhance 0.55 and KCNQ2 enhance baseline -1.3.
`O=c1cc(Nc2ccc3c(c2)OCCO3)[nH]c(=O)n1-c1ccc(Cl)cc1` gave KCNQ2 enhance 1.5 and KCNQ2 enhance baseline -0.03.
Screening CC(=O)c1ccc(N(CC(=O)NC2CCCC2)C(=O)c2csnn2)cc1 returned KCNQ2 enhance 1.1 and KCNQ2 enhance baseline 1.2.

Back to the main list, starting two compounds before the break.
`CC(C)(C)[C@H]1C=C(C(=O)NC2CC2)O[C@@H](OCc2ccc(CO)cc2)C1` gave KCNQ2 enhance 0.51 and KCNQ2 enhance baseline -1.6.
For COc1ccc(-n2ncc3c(NCC4CCCO4)ncnc32)cc1 (centres undefined) the results were KCNQ2 enhance 0.01 and KCNQ2 enhance baseline -0.03.
For Cc1cccc(-n2c(CNC(=O)c3ccc(S(=O)(=O)N4CCCC4)cc3)n[nH]c2=S)c1 the results were KCNQ2 enhance 0.78 and KCNQ2 enhance baseline -0.86.
Screening Cc1cc(C)nc(SCC(=O)N2CCC(C(N)=O)CC2)n1 returned KCNQ2 enhance 0.7 and KCNQ2 enhance baseline -0.02.
`COc1c2c(cc3ccc(=O)oc13)CCO2` gave KCNQ2 enhance 1.1 and KCNQ2 enhance baseline -0.93.
`CCOc1ccccc1N1CC(C(=O)Nc2ccccc2N2CCOCC2)CC1=O` (centres undefined) gave KCNQ2 enhance 0.09 and KCNQ2 enhance baseline -0.02.
`CNC(=O)c1[nH]cnc1C(=O)Nc1ccc(Cl)cc1` gave KCNQ2 enhance 0.18 and KCNQ2 enhance baseline -1.
Screening COc1cccc(C(=O)COc2ccc3c(C)c(Cc4ccccc4)c(=O)oc3c2)c1 returned KCNQ2 enhance 1.1 and KCNQ2 enhance baseline -0.39.
CCn1cc(C(=O)Nn2cnnc2)c(=O)c2ccc(C)nc21 was read as KCNQ2 enhance 0.12 and KCNQ2 enhance baseline -2.1.
Screening NC(=O)N/N=C/c1cc(Br)ccc1OCC(=O)NCc1ccccc1 returned KCNQ2 enhance 0.8 and KCNQ2 enhance baseline -0.07.
C=CC[n+]1c(-c2ccc(C)cc2)csc1Nc1ccc(NC(C)=O)cc1 was read as KCNQ2 enhance 1.7 and KCNQ2 enhance baseline 0.61.
`COc1ccc(-n2nc(C(=O)NCCCN3CCCC3=O)c3c4ccccc4n(C)c3c2=O)cc1Cl` gave KCNQ2 enhance 0.91 and KCNQ2 enhance baseline -0.87.
`OCCC#Cc1ccc(CN2CCN(CCc3ccccc3)C(CCO)C2)cc1` (centres undefined) gave KCNQ2 enhance 0.79 and KCNQ2 enhance baseline -1.3.
Cc1cc(Br)cn2ccnc12 was read as KCNQ2 enhance 0.4 and KCNQ2 enhance baseline -0.98.
`CC(=O)c1sc(N/N=C2\CC3CCC2(C)C3(C)C)nc1C` (centres undefined) gave KCNQ2 enhance 0.12 and KCNQ2 enhance baseline 0.57.
`O=C(Nc1ccccc1C(F)(F)F)c1cc2ncc(CCCl)cn2n1` gave KCNQ2 enhance 0.13 and KCNQ2 enhance baseline 0.12.
Cc1ccc(C(=O)NCCSc2snnc2C)cc1 was read as KCNQ2 enhance 1.5 and KCNQ2 enhance baseline -2.
O=C(CSc1nnc(-c2ccco2)c(-c2ccco2)n1)c1ccccc1 was read as KCNQ2 enhance 0.04 and KCNQ2 enhance baseline 0.01.
For Cc1cc(=O)oc2c(CN3CCN(C)CC3)c(O)c(Cl)cc12 the results were KCNQ2 enhance 0.79 and KCNQ2 enhance baseline 0.62.
Screening NC(=O)CC(NC(=O)Cc1cccc2ccccc12)c1ccc(NCCc2cccc(F)c2)c([N+](=O)[O-])c1 (centres undefined) returned KCNQ2 enhance 0.49 and KCNQ2 enhance baseline -0.43.
Screening COC(C/C=C\C(=O)[C@H](C)OCc1ccccc1)OC returned KCNQ2 enhance 0.55 and KCNQ2 enhance baseline 2.1.
`CC(=O)c1c(C)[nH]c(C(=O)OCC(=O)N2CCc3ccccc32)c1C` gave KCNQ2 enhance 0.85 and KCNQ2 enhance baseline 0.08.
Screening Nc1nonc1-n1nnc(C(=O)N/N=C/c2ccccn2)c1-c1ccccc1 returned KCNQ2 enhance 1.2 and KCNQ2 enhance baseline -2.9.
For COc1ccc(C(=O)COC(=O)c2cccc(-n3cnnn3)c2)c(OC)c1 the results were KCNQ2 enhance 0.78 and KCNQ2 enhance baseline 0.59.
`CCCN(CCC)C(=O)c1cc([N+](=O)[O-])cc2c1-c1ccc([N+](=O)[O-])cc1C2=C(C#N)C#N` gave KCNQ2 enhance 0.34 and KCNQ2 enhance baseline -1.4.
C=CCn1c(CNC(=O)c2ccco2)nnc1SCC(=O)c1ccc(OC)cc1 was read as KCNQ2 enhance 0.07 and KCNQ2 enhance baseline 0.
CCn1c(=O)c(C(=O)NCCc2ccc(Cl)cc2)c(O)c2ccccc21 was read as KCNQ2 enhance 1.2 and KCNQ2 enhance baseline 0.8.
CCCCOC(=O)c1ccc(NC(=O)COC(=O)CN2C(=O)NC3(CCCC3)C2=O)cc1 was read as KCNQ2 enhance 1.3 and KCNQ2 enhance baseline -0.5.
`CC(=O)Nc1ccc(-n2cnnn2)cc1` gave KCNQ2 enhance 1.7 and KCNQ2 enhance baseline 0.09.
`COc1cc(C(=O)Nc2cc(-c3cn4cccnc4n3)ccc2C)cc(OC)c1OC` gave KCNQ2 enhance 1.1 and KCNQ2 enhance baseline 0.03.
`COc1cc(CNc2ccc(N3CCOCC3)cc2)ccc1OCC(=O)NC(C)(C)C` gave KCNQ2 enhance 0.02 and KCNQ2 enhance baseline -0.01.
`S=c1[nH]nc(COc2ccccc2)n1/N=C/c1ccc(Cl)cc1` gave KCNQ2 enhance 0.2 and KCNQ2 enhance baseline 0.2.

Quoted at random: two entries already listed
CCn1c(=O)c(C(=O)NCCc2ccc(Cl)cc2)c(O)c2ccccc21 was read as KCNQ2 enhance 1.2 and KCNQ2 enhance baseline 0.8.
`S=c1[nH]nc(COc2ccccc2)n1/N=C/c1ccc(Cl)cc1` gave KCNQ2 enhance 0.2 and KCNQ2 enhance baseline 0.2.

Additional compounds
Screening CCOC(=O)c1cc(C(=O)OCC)c(=O)[nH]c1SCc1ccccc1 returned KCNQ2 enhance 0.9 and KCNQ2 enhance baseline 0.87.
Screening CC(C)Cc1nnc(NC(=O)CN2C(=O)NC3(CCCCC3)C2=O)s1 returned KCNQ2 enhance 1 and KCNQ2 enhance baseline 1.2.
Screening O=C1N[C@@H](Cc2ccccc2)C(=O)N2[C@H]1C[C@]1([C@]34C[C@H]5C(=O)N[C@@H](Cc6ccccc6)C(=O)N5[C@H]3N(S(=O)(=O)c3ccccc3)c3ccccc34)c3ccccc3N(S(=O)(=O)c3ccccc3)[C@H]21 returned KCNQ2 enhance 0.94 and KCNQ2 enhance baseline 0.26.
CC1(C)CC(=O)C2=C(C1)Oc1ncn(CCCO)c(=N)c1C2c1ccccc1 (centres undefined) was read as KCNQ2 enhance 1.7 and KCNQ2 enhance baseline 0.61.
Screening O=C(Nc1nccs1)c1ccc(-c2ccc(F)c(Cl)c2)o1 returned KCNQ2 enhance 1.1 and KCNQ2 enhance baseline -1.9.
Screening Cc1ccc2nc(-c3ccccc3)cc(C(=O)O)c2c1 returned KCNQ2 enhance 1.1 and KCNQ2 enhance baseline -0.56.
COC(=O)c1cc(S(=O)(=O)NCc2cccc(Br)c2)c[nH]1 was read as KCNQ2 enhance 0.72 and KCNQ2 enhance baseline 0.03.
For COC(=O)CN1CC(=O)N(c2ccccc2)C1=S the results were KCNQ2 enhance 2.2 and KCNQ2 enhance baseline -1.1.
`CCN1C(=O)[C@H]2[C@@H](c3ccc(OC)cc3)N3C(=O)CN(CCOC)C(=O)[C@@]3(C)[C@H]2C1=O` gave KCNQ2 enhance 0.04 and KCNQ2 enhance baseline 0.86.
Screening COc1ccc(Nc2cc(Cl)nc(N)n2)cc1 returned KCNQ2 enhance 4.1 and KCNQ2 enhance baseline 2.2.
CCOC(=O)Nc1ccc2c(c1)N(C(=O)OC)c1ccccc1CC2 was read as KCNQ2 enhance 0.62 and KCNQ2 enhance baseline -0.1.
Screening NC(=S)NNC(=O)Nc1cccc(Cl)c1 returned KCNQ2 enhance 0.7 and KCNQ2 enhance baseline 0.49.
For CCOc1ccc(/C=N/n2c(-c3ccccc3)n[nH]c2=S)cc1 the results were KCNQ2 enhance 0.94 and KCNQ2 enhance baseline 0.31.
`Cc1ccc(SCc2ccc(C(=O)NCc3ccncc3)cc2)cc1` gave KCNQ2 enhance 0.61 and KCNQ2 enhance baseline -0.07.
O=C(NCc1ccc(F)cc1)c1ccc(N2CCOCC2)c([N+](=O)[O-])c1 was read as KCNQ2 enhance 0.42 and KCNQ2 enhance baseline 0.
O=C(N/N=C/c1ccc(-c2cccc(C(F)(F)F)c2)o1)c1cccc(F)c1 was read as KCNQ2 enhance 1.2 and KCNQ2 enhance baseline 0.67.
`O=C(NCCc1ccncc1)c1ccccc1F` gave KCNQ2 enhance 0.5 and KCNQ2 enhance baseline 1.5.
COc1ccc(CC(=O)OCC(=O)Nc2cccc(Br)c2)cc1 was read as KCNQ2 enhance 0.71 and KCNQ2 enhance baseline -0.28.
For Cc1nc(C)c2c(c1C(F)(F)F)-c1ccccc1C2(F)F the results were KCNQ2 enhance 0.3 and KCNQ2 enhance baseline -2.6.
`Cc1nc2ccc(S(=O)(=O)NCC(=O)O)cc2s1` gave KCNQ2 enhance 2.3 and KCNQ2 enhance baseline -0.52.
COc1ccc(CCNC2CC(=O)N(CCc3ccccc3)C2=O)cc1 (centres undefined) was read as KCNQ2 enhance 1.2 and KCNQ2 enhance baseline 0.18.
CCN(C(=O)CSc1nnc(-c2ccccc2)o1)c1c(N)n(Cc2ccccc2)c(=O)[nH]c1=O was read as KCNQ2 enhance 2.4 and KCNQ2 enhance baseline -0.38.
For C=C(C)COc1ccc(C2NC(=O)c3ccccc3O2)cc1OCC (centres undefined) the results were KCNQ2 enhance 0.3 and KCNQ2 enhance baseline 0.58.
CCOC(=O)CN1CC23C=CC(O2)C(C(=O)Nc2ccc(F)cc2)C3C1=O (centres undefined) was read as KCNQ2 enhance 1.3 and KCNQ2 enhance baseline -0.54.
Screening Cc1ccccc1C(=O)N1CCC(C(=O)N2CCN(S(=O)(=O)c3ccccc3F)CC2)CC1 returned KCNQ2 enhance 0.37 and KCNQ2 enhance baseline 0.07.
For CC(C)(C)SCCNC(=O)c1ccc(Cl)c([N+](=O)[O-])c1 the results were KCNQ2 enhance 1 and KCNQ2 enhance baseline -0.49.
`Cc1c(/N=C(\[O-])Nc2ccc(Br)cc2)sn[n+]1C` gave KCNQ2 enhance 0.4 and KCNQ2 enhance baseline -0.05.
Screening CC(=O)NC(Cc1ccc(C)cc1)C(=O)NC1CCN(c2ncccc2[N+](=O)[O-])CC1 (centres undefined) returned KCNQ2 enhance 0.38 and KCNQ2 enhance baseline -0.37.
Screening CN(CC(=O)Nc1ccc(Cl)c(C(F)(F)F)c1)C(=O)CCN1C(=O)C2CC=CCC2C1=O (centres undefined) returned KCNQ2 enhance 0.08 and KCNQ2 enhance baseline -0.1.

Bioassay records: PubChem, Johns Hopkins Ion Channel Center
